# PrP 5UTR inh: inhibition of PrP 5' UTR reporter expression; cell-based PrP 5' UTR mRNA reporter, plate reader; inhibition, % (concentration not given with the values); 340,000 compounds, 0.35% hits;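 active = every replicate at 50% or more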;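 note: 0 = median of the neutral control wells; tested in H4 reporter cells; numbers are from one replicate; inactives centre near -14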
# Mtb hypoxia inh: Mtb hypoxia fluorescent reporter inhibition. M. tuberculosis hypoxia-regulated fluorescent reporter, fluorescence. fluorescence inhibition, % (test concentration not listed). 300,000 compounds, 0.1% hits. AID 1159583;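 active = 35 to 45% if threefold the growth effect, above 45% if 1.5-fold the growth effect; inactive = the rest, general growth blockers included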;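 note: wells of about 50 µL received 100 nL stock; 0% = vehicle wells and 100% = reference inhibitor wells; whole bacteria with a GFP reporter of the hypoxia response; strong numbers were not always called active; many hits fall short of the cut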
# Sa RN4220 lethal: S. aureus RN4220 growth inhibition | 330,000 compounds, 0.33% hits | AID 1259311 | OD600, 16 h | inhibition, % (test concentration not listed);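 active = z-score of -3 or lower and OD600 up to 0.18 on both plates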;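 note: plate controls were untreated cells for no effect and reference antibiotic for full effect; stock transfer was 100 nL into about 80 µL; one replicate is shown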
# Sa ugtP lethal: compounds lethal to S. aureus RN4220 ugtP deletion mutant | OD600 growth, 16 h; some inactives read as strong as hits | growth inhibition, % (no concentration beside the values) | 330,000 compounds, 0.54% hits;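 active = z-score under -3 and OD600 up to 0.15 on both plates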;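 note: plate controls were untreated wells for no effect and antibiotic for full effect; wells of about 80 µL received 100 nL stock; the first replicate is given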
# BJeLR viability: BJeLR cell viability loss; BJeLR (HRASV12) viability, CellTiter-Glo ATP luminescence, 48 h; reference of the scale not given here; inhibition, % (concentration not given with the values); 300,000 compounds, 0.17% hits; AID 1554;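 active = replicate mean above 50%; inconclusive = above 50% but judged a plate artefact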;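 note: 50 nL library stock added to about 25 µL; numbers are from one replicate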
# Bead autofluor: counter-screen for toxin protease inhibitors: compound fluorescence; compound autofluorescence counterscreen, microsphere flow cytometry; stronger effect = higher value; fluorescence intensity (no concentration beside the values); 360,000 compounds, 3.1% hits;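 active = at least 3 SD above the mean of all compounds, about 16000 in these data; inconclusive = too few beads counted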;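 note: 100 nL of 1 mM stock went into each well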
# Mtb hypoxia inh growth: also measured in Mtb hypoxia inh; calls as there; growth inhibition, %; measured here: M. tuberculosis growth (absorbance);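 0% = vehicle and 100% = reference antibiotic; read after six days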
# * marks the source's active call; other numbers are inactive results; ? = inconclusive; · = no result given.
SMILES,PrP 5UTR inh,Mtb hypoxia inh,Mtb hypoxia inh growth,Sa RN4220 lethal,Sa ugtP lethal,BJeLR viability,Bead autofluor
CCN(Cc1ccccc1)C(=O)COC(=O)Cc1c[nH]c2ccccc12,-3,-3,-3,4.3,1,·,6748
Nc1cc(Cl)ccc1Oc1ccccc1,-22,13,9,6.7,10,-1,8052
CCc1nc2c(c(=O)c3ccccc3n2C)c(=O)n1-c1ccc(F)cc1,-19,12,-2,3.8,-1,4,2458
COc1ccc(C2C3C(=O)N(C(C)(C)C)C(=O)C3[C@]3(CC(C)C)C(=O)N(c4cccc(Br)c4)C(=O)N23)cc1 (stereo partly drawn),·,-9,-7,4.7,5,·,·
Cc1nn(CC(=O)NC2CCS(=O)(=O)C2)c(C)c1S(=O)(=O)N(C)C (stereo not drawn),-18,2,-1,7.7,4,·,6113
CC[C@@H]1C(c2ccccc2)=NN(c2ccc(Br)cc2)[C@H]1C(=O)N1CCOC1=O,-25,3,-11,-7.6,56,·,3879
Cc1[nH]c(=O)n(C(C)C)c(=O)c1Br,4,0,-3,-0.3,-3,·,2805
COc1ccc(Cl)cc1NC(=O)Cn1cccc1,-4,4,1,0.2,2,4,11030
c1ccc(CSc2ncccn2)cc1,-32,14,-4,5.6,11,12,10413
Cc1sc2ncnc(N3CCCC(C)C3)c2c1C (stereo not drawn),-11,-3,-6,-0.2,4,-1,3981
CC(C(=O)O)n1nc(-c2ccccc2)c2ccccc21 (stereo not drawn),-17,9,-10,4.8,6,5,3069
Cc1onc(-c2ccccc2Cl)c1C(=O)O/N=C(\N)c1ccc([N+](=O)[O-])o1,8,·,·,·,·,1,4260
CCOC(=O)C(=NNc1cc(Cl)ccc1Cl)N1CCN(C)CC1,·,15,10,-1.4,8,·,·
COC(=O)c1c(NC(=O)C2CC2)sc2c1CCN(C(C)=O)C2,-3,5,6,2.0,1,-10,5510
O=Cc1ccccc1Oc1ccccc1,-18,7,4,-5.8,-10,-2,2966
CCNC(=O)CSc1nnc(-c2cccs2)o1,-8,-1,8,1.7,2,6,4941
CC(Cn1cncn1)C(=O)N1CCN(S(=O)(=O)c2ccc(Cl)cc2)CC1 (stereo not drawn),-15,14,4,1.9,-2,-4,3633
O=C(NCc1ccncc1)c1ccc(Cl)c(S(=O)(=O)N2CCCCC2)c1,10,5,10,3.9,-3,4,?
O=C(O)c1cc(-c2ccc(N3CCOCC3)cc2)nn1-c1ccccc1Cl,-22,3,-4,5.5,-2,-1,4309
COc1cc(CC(=O)Nc2ccc(Cl)c(C(F)(F)F)c2)cc(OC)c1OC,-4,8,1,0.3,-10,-1,2010
CCOc1ccc(CN(C)CC(=O)Nc2cccc3ccccc23)cc1OC,-14,-1,9,8.0,6,-2,4734
CS(=O)(=O)c1ccc2nc(NC(=O)Nc3ccccc3F)sc2c1,-48,1,-1,2.0,-3,-2,4546
O=C(CN1C(=O)CSc2ncccc21)Nc1ccccc1F,-20,-7,-6,4.8,9,-1,4731
O=C(CSc1nc2ccccc2s1)Nc1cc(S(=O)(=O)N2CCOCC2)ccc1O,-11,1,0,-0.7,-6,-6,2480
O=C1C[C@@H](c2ccccc2)Oc2cc(O)cc(O)c21,-4,·,·,·,·,15,4082
S=C(NCc1ccccc1)NC1CCCCC1,-26,·,·,·,·,-1,4008
COc1ccc(-c2nc(NC(C)=O)sc2-c2ccccc2)cc1,-18,5,7,0.8,6,-2,4343
Clc1ccccc1-c1ccc2ncnc(NCc3cccnc3)c2c1,-18,13,7,4.0,-16,·,3558
Cn1c(Cl)c(/C=N/OC(=O)c2cccc(Cl)c2)c2ccccc21,-20,·,·,·,·,6,5728
COCc1cc(/C=N\NC(=O)COc2ccc(Cl)cc2)ccc1OC,-11,·,·,·,·,-7,2559
O=C(N(c1ccccn1)c1ccccn1)C12CC3CC(CC(C3)C1)C2,-17,3,5,1.6,5,4,4366
COc1ccc(CCNC(=O)CCNS(=O)(=O)c2cccc3nonc23)cc1OC,-50,0,4,3.4,-5,5,6066
c1ccc2c(c1)OCC(C1=NCCN1)O2 (stereo not drawn),-7,6,6,6.5,-1,-15,4168
CSCC(C)N1CCC(N2CCC(C(=O)NCc3ccccn3)CC2)CC1 (stereo not drawn),-13,1,0,3.9,6,6,5835
c1ccc(-n2ccnc2)cc1,-16,·,·,·,·,-13,5151
CCCCN(C(=O)c1c(C)noc1C)c1c(N)n(CCCC)c(=O)[nH]c1=O,-11,-4,1,1.8,2,-7,6658
COC(=O)COc1ccc(S(=O)(=O)Nc2ccc3c(c2)OCO3)cc1,-8,-1,6,4.0,14,2,6394
N#Cc1cnn(-c2ncnc3sc(-c4ccccc4)cc23)c1N,2,5,-1,4.9,-2,-1,15605
NC(=O)C1CCCc2c1n(Cc1ccccc1)c1ccccc21 (stereo not drawn),-19,11,0,-1.2,1,-5,3748
COc1ccc2c(c1)c(C(=O)N1CCN(C)CC1)c(C)n2-c1ccccc1,-25,14,8,6.4,-4,0,4161
Cc1ccc(COn2nnc3ccc(S(=O)(=O)N4CCOCC4)cc32)cc1,2,2,4,4.4,1,·,5702
O=C(Nc1c(F)cccc1F)c1ccc2c(c1)CCN2S(=O)(=O)c1ccccc1,0,2,-2,-7.4,0,7,6473
COc1ccccc1CNC(=O)c1ccc(CNc2c(N3CCCC3)c(=O)c2=O)cc1,4,11,10,3.5,6,-4,4430
NC1=NC[C@@H](Cc2ccc(O)cc2)N1CCc1cc(C(F)(F)F)cc(C(F)(F)F)c1,-8,·,·,·,·,3,3006
Cc1cc2ncc(-c3ccc(Cl)cc3)cn2n1,-66,11,0,5.0,7,4,3266
CC1(C)[N+]([O-])=C2C(=[N+]([O-])C1(C)C)c1ccccc1/C2=N\O,-16,·,·,·,·,0,2569
CCCCc1c(O)c2ccccc2n(CCCC)c1=O,-8,·,·,·,·,5,2489
Cc1ccc(CNC(=O)C(NS(=O)(=O)c2cccs2)C(C)C)cc1 (stereo not drawn),-18,12,11,7.1,8,-8,6232
[N-]=[N+]=NC1C[C@H](n2ccc(=O)[nH]c2=O)O[C@@H]1CO (stereo partly drawn),-5,·,·,·,·,-18,5706
CCC(=O)N1CCc2cc(OC)c(OC)cc2C1COc1ccc(OC)cc1 (stereo not drawn),-12,-7,8,6.0,4,9,4564
CCN(CC)CCCN1C(=O)c2oc3ccccc3c(=O)c2C1c1cccnc1 (stereo not drawn),-7,8,2,7.2,-2,-2,2346
CCOc1ccc(NC(=S)N(CCN2CCOCC2)Cc2cc3cc4c(cc3[nH]c2=O)OCO4)cc1,-80,12,-1,3.7,-2,2,5494
COc1ccc(NC(=O)c2cc3c(CO)cnc(C)c3oc2=Nc2cccc(C)c2)c(OC)c1,7,-2,3,4.7,-3,20,2816
CC1CCN(C(=O)c2ccc(CSc3ccc(Cl)cc3)cc2)CC1,-15,-1,-7,2.5,-22,1,9144
N=C1SCC(=O)N1c1ncc(Cc2ccc(F)cc2)s1,-4,20,5,78,29,-2,4588
O=C(c1cc(-c2ccc(Cl)cc2)on1)N1CCN(c2ccccc2)CC1,-33,1,-5,0.1,1,-6,4119
Cc1onc(-c2ccccc2Cl)c1C(=O)NCc1ccco1,-20,-1,5,0.9,-7,4,11281
COCc1nnc(NC(=O)c2c(-c3c(Cl)cccc3Cl)noc2C)s1,-37,·,·,·,·,-1,4175
CC(=O)C1=C(O)C=C(c2ccco2)CC1c1ccco1 (stereo not drawn),-8,·,·,9.5,11,0,2175
CC(=O)NCCC(=O)Nc1nc2c(ccc3ccccc32)s1,0,2,2,-3.3,-8,-5,6929
# The list continues.
SMILES,PrP 5UTR inh,Mtb hypoxia inh,Mtb hypoxia inh growth,Sa RN4220 lethal,Sa ugtP lethal,BJeLR viability,Bead autofluor
Cc1ncccc1C(=O)N1CCCC(CNC(=O)c2ccc(-c3ccccc3)cc2)C1 (stereo not drawn),-15,0,-5,0.2,2,3,6618
CN(CC(=O)Nc1ccccc1Br)C(=O)CCc1nc2ccccc2c(=O)[nH]1,2,-3,6,-1.1,-1,6,5933
COc1ccc(OC)c(NC(=O)CCNS(=O)(=O)c2cccc3nsnc23)c1,-18,-2,3,6.9,-3,1,3565
O=C(CCC1CCCCC1)NC1=NCCS1,-23,7,4,5.9,9,-23,1998
COc1ccc(/C(N)=N/O)cc1O,-11,10,0,-0.4,11,12,1990
COc1ccc(-c2cc(C(F)F)n3ncc(C(=O)N4CCSCC4)c3n2)cc1,-10,13,13,5.0,-6,-2,2427
CC(=O)Nc1ccc(CN2CCC(CO)(CCOc3ccccc3)CC2)cc1,-1,2,-1,13,6,3,4184
C=C1CC2C3CCc4cc(OC)ccc4C3CC[C@]12C (stereo partly drawn),·,13,7,-10,89*,·,·
O=C(/C=C/c1ccc(F)cc1)N1CCCN(C(=O)/C=C/c2ccc(F)cc2)CC1,-14,-3,-1,-0.6,-6,-9,10756
Cc1ccc(NC(=O)CCN2C(=O)OC(C)(C)C2(C)O)cc1 (stereo not drawn),-15,7,10,4.8,5,1,4250
COC(=O)NN=CC1=CCC2CC1C2(C)C (stereo not drawn),·,10,14,1.4,6,·,·
Cc1cccc(C(=O)NC2CC3CCCC(C2)N3C(=O)NC2CCCCC2)c1 (stereo not drawn),-11,-3,-1,3.6,3,9,3207
COc1ccc(S(=O)(=O)N(C)C)cc1NC(=O)CN1C(=O)NC2(CCCC2)C1=O,-17,5,3,4.5,2,-5,3876
OCCC1CN(Cc2cccn2-c2nccs2)CCN1C1CCCCC1 (stereo not drawn),-17,6,5,-0.8,10,3,2233
Cc1cc2cc(C#N)c(SCC(=O)Nc3nonc3C)nc2cc1C,-40,3,-4,4.7,-5,-2,4417
CCN(CC)C(=O)COC(=O)c1ccc(C)c(NC(=O)c2ccco2)c1,-23,10,6,3.7,9,-3,4326
CCOC(=O)C1=C(C)N=c2s/c(=C\c3cccc(OCC(=O)O)c3)c(=O)n2C1c1ccccc1 (stereo not drawn),-5,·,·,·,·,5,3765
CC(C)(C)N1C(=O)C2C(c3ccc(Br)cc3)N3C(=O)N(c4cccc(F)c4)C(=O)[C@@]3(C)C2C1=O (stereo partly drawn),·,12,9,2.3,-15,·,·
Cc1ccc2c(NC(=O)C3CC3)cccc2n1,-2,·,·,2.2,-7,-2,5671
COC(=O)[C@H](C)NC(=O)Nc1cc(Cl)ccc1C,-30,7,2,2.9,10,-2,8880
O=c1c(Cc2ccc(F)cc2)c(O)ccn1Cc1ccc(Cl)cc1Cl,-8,·,·,2.7,-15,-4,2283
CC1CCN(Cc2nc3c(c(=O)n(C)c(=O)n3C)n2CCc2ccccc2)CC1,-4,·,·,4.6,-8,-3,3628
Cc1scc(C(=O)Nc2ccon2)c1-c1ccccc1,-10,3,12,5.5,4,·,10888
COc1ccc(NC(=O)c2ccc(Cl)c(S(=O)(=O)N3CC(C)OC(C)C3)c2)cn1 (stereo not drawn),-22,2,-5,-4.6,-12,·,7875
COC(=O)c1ccc(Cl)c(S(=O)(=O)N2CCCC2)c1,-8,3,6,-0.5,2,-1,3585
CCN(CC)S(=O)(=O)c1ccc(N2CCOCC2)c(NC(=O)c2ccc(=O)n(C)n2)c1,-20,23,8,5.9,2,·,2809
Cc1ccc(S(=O)(=O)Nc2ccccc2CNc2ccccn2)cc1,-25,-2,12,9.7,-14,0,2091

# Reprinted at random: 7 records from the list.
SMILES,PrP 5UTR inh,Mtb hypoxia inh,Mtb hypoxia inh growth,Sa RN4220 lethal,Sa ugtP lethal,BJeLR viability,Bead autofluor
Cc1ccc(CNC(=O)C(NS(=O)(=O)c2cccs2)C(C)C)cc1 (stereo not drawn),-18,12,11,7.1,8,-8,6232
Cc1ncccc1C(=O)N1CCCC(CNC(=O)c2ccc(-c3ccccc3)cc2)C1 (stereo not drawn),-15,0,-5,0.2,2,3,6618
CC(Cn1cncn1)C(=O)N1CCN(S(=O)(=O)c2ccc(Cl)cc2)CC1 (stereo not drawn),-15,14,4,1.9,-2,-4,3633
[N-]=[N+]=NC1C[C@H](n2ccc(=O)[nH]c2=O)O[C@@H]1CO (stereo partly drawn),-5,·,·,·,·,-18,5706
O=c1c(Cc2ccc(F)cc2)c(O)ccn1Cc1ccc(Cl)cc1Cl,-8,·,·,2.7,-15,-4,2283
NC(=O)C1CCCc2c1n(Cc1ccccc1)c1ccccc21 (stereo not drawn),-19,11,0,-1.2,1,-5,3748
COc1ccc2c(c1)c(C(=O)N1CCN(C)CC1)c(C)n2-c1ccccc1,-25,14,8,6.4,-4,0,4161
